Lassa entry inh = Lassa virus entry inhibition | Lassa virus pseudotype entry inhibition, cell reporter; control for the full effect not named in the record | Potency, µM (top dose mostly 37.9 µM), without a hit: at the highest dose activity change, negative = inhibition, hits mostly inhibitors | 300,000 tested, 1.2% active | AID 540256; active means well fitted inhibition curve with a large enough effect; inconclusive means small, poorly fitted or top-dose-only effect, or effect the other way; inactive means flat fitted curve, though single readings scatter; tested in HEK293 cells; also: % is scaled to controls: 0 for no effect and ±100 for the full control effect; nearly all actives have a fitted effect of over 50% in size; luciferase read-out
Cruzain inh Det = inhibitors of Trypanosoma cruzi cruzain with detergent; 200,000 tested, 0.43% active; P25779; Potency, µM, inactives show max response, negative = inhibition, hits mostly inhibitors; purified cruzain, Z-FR-AMC fluorescence, 0.01% Triton;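 also: plate controls were neutral wells for no effect and buffer without enzyme for full effect; nearly all actives have a fitted effect of over 40% in size; top concentration of the series not given in the record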
Target sequence (P25779 123-467 limits assumed): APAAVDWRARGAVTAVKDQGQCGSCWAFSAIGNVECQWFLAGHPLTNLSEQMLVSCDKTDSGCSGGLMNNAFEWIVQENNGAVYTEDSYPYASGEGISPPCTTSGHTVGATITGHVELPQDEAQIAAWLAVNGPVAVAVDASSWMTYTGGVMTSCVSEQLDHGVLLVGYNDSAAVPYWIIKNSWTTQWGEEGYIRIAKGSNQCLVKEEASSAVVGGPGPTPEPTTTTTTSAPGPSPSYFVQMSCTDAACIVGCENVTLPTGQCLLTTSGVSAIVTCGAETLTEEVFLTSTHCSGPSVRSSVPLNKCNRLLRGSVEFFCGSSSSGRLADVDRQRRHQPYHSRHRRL
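Cruzain (1.5 nM) preincubated 15 min at RT with compound in 100 mM sodium acetate pH 5.5, 5 mM DTT, 0.01% Triton X-100. Reaction started with 2 uM Z-FR-AMC; AMC fluorescence (ex 360/em 450 nm) change over 60 s gave rate.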
StopGo reporter = FMDV 2A StopGo reporter, luciferase signal; human cells with a luciferase reporter of 2A StopGo recoding; control for the full effect not named in the record; Potency, µM (highest dose often 57.9 µM), without a hit: at the top dose signal change, negative = less light; 410,000 tested, 1.2% active; AID 1159524; active = well fitted falling curve with a large enough effect; inconclusive = small, poorly fitted or top-dose-only effect; inactive = no such curve, though single readings can be large or run the other way; tested in HEK293T cells; also: % is scaled to controls: 0 for no effect and ±100 for the full control effect; nearly all actives have a fitted effect of over 45% in size; luciferase light after 4 h
NS1 inh = inhibitors of influenza NS1 protein function | Potency, µM (top dose mostly 46.1 µM), for inactives: at the highest dose activity, positive = more growth | S. cerevisiae slowed by influenza A NS1, growth recovery by OD600 | 270,000 tested, 0.4% active | AID 2326; active means well fitted rising curve with a large enough effect; inconclusive means small, poorly fitted or top-dose-only effect; inactive means no such curve, though single readings can be large or run the other way; also: nearly all actives have a fitted effect of over 50% in size
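OD600 was taken as the measure of yeast growth restored by compound in an NS1-expressing S. cerevisiae strain. Cells had been washed out of glucose medium and diluted 1:100 into galactose -URA medium, pH 6.0.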
SARS PLpro yeast = blocks SARS-CoV papain-like protease in a yeast assay; 330,000 tested, 0.19% active; AID 485353; S. cerevisiae expressing SARS-CoV PLpro, growth rescue; control for the full effect not named in the record; Potency, µM (top dose mostly 32.9 µM), for the others: at the highest dose activity, positive = growth rescue; active means well fitted rising curve with a large enough effect; inconclusive means small, poorly fitted or top-dose-only effect; inactive means no such curve, though single readings can be large or run the other way; also: 0% is about no effect; nearly all actives have a fitted effect of over 55% in size; growth read by luminescence after 48 h
Cruzain noTriton = blocks cruzain activity in detergent-free assay. P25779. purified cruzain, Z-FR-AMC fluorescence, no detergent. Potency, µM, for the others: max response, negative = inhibition, most hits filed as inhibitors. 200,000 tested, 2.3% active;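 also: plate controls were enzyme without inhibitor for no effect and buffer without enzyme for full effect; nearly all actives have a fitted effect of over 40% in size; top concentration of the series not given in the record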
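Detergent-free condition (0.00005% Triton X-100) in acetate buffer pH 5.5 with DTT. 1.5 nM enzyme and compound were pre-mixed 15 min, then 2 uM Z-FR-AMC substrate added; reaction progress from fluorescence change between first and third reads (60 s).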
MARV entry inh = inhibitors of Marburg virus binding or cell entry. Marburg virus pseudotyped entry inhibition, cell reporter; control for the full effect not named in the record; about a third of the inactives were read at about 46 µM. Potency, µM (titrated, usually from 37.8 µM), for the others: top-dose activity change, negative = inhibition, actives largely listed as inhibitors. 300,000 tested, 1.8% active. AID 540276; active = well fitted inhibition curve with a large enough effect; inconclusive = small, poorly fitted or top-dose-only effect, or effect the other way; inactive = flat fitted curve, though single readings scatter; tested in HEK293 cells; about a fifth of its hits are not listed in these tables; also: % is scaled to controls: 0 for no effect and ±100 for the full control effect; luciferase read-out
RE007 growth inh = less growth of the S. pombe RE007 Vpr strain. AID 651644. Potency, µM (highest dose often 92.2 µM), inactives show top-dose activity change, negative = less growth. S. pombe RE007 Vpr strain, BacTiter-Glo ATP luminescence, 24 h; control for the full effect not named in the record. 360,000 tested, 0.21% active; active = well fitted falling curve with a large enough effect; inconclusive = small, poorly fitted or top-dose-only effect; inactive = no such curve, though single readings can be large or run the other way;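 also: % is scaled to controls: 0 for no effect and ±100 for the full control effect; nearly all actives have a fitted effect of over 50% in size; the assay follows cell death caused by Vpr and the record does not say whether a fall means rescue or toxicity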
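Fission yeast RE007 carrying one integrated HIV-1 vpr copy, seeded at OD 0.01 in PMG+AL medium with 23 nL pinned compound. Grown 24 h at 30 degrees; viability read by BacTiter-Glo luminescence after 5 min.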
Starred values were filed as active, the others as inactive; u = inconclusive; x = no result given; & = joins results of further samples; [ ] = remark or other dose. Unless noted, calls follow the shape of the dose curve; as a rule, active = well fitted curve in the direction sought with a large enough effect; inconclusive = small, poorly fitted or top-dose-only effect, or another doubt; inactive = no such curve, though single readings can be large; an effect the other way counts as inactive or inconclusive. Potency is read from the fitted curve at half-maximal effect.

Sample of the layout:
SMILES	Lassa entry inh	Cruzain inh Det	StopGo reporter	NS1 inh	SARS PLpro yeast	Cruzain noTriton	MARV entry inh	RE007 growth inh
Cc1ccc(C)c(Cn2c3ccccc3c3cnn(CC(=O)NC4CCCCCC4)c(=O)c32)c1	6%[46.1 µM]	-2.2%	-10%	x	x	2%	-3%[46.1 µM]	x
O=C(COC(=O)CCc1nc2ccccc2n1-c1ccccc1)Nc1cccc(Cl)c1	19%	-9.9%	-13%	-11%	-3%	3%	0%	-6%
O=S(=O)(c1ccccc1)N1CCc2ccccc21	1%	x	-16%	x	x	x	-1%	-11%
C(=C/c1nccc2c1[nH]c1ccccc12)/c1ccc2c(c1)OCO2	-28%	x	30%	-32%	-17%	x	u	39%
COCCCNC(=O)C[C@H]1C[C@H](C(=O)N(C(C)C)C(C)C)[C@@]2(C)c3[nH]c4cc(CCC(=O)N(C)C)ccc4c3CCN2C1=O	x	x	-4%	x	-1%	x	1%	7%
CCOC(=O)C1CCN(C(=O)COc2cccc3ccccc23)CC1	17%[46.1 µM]	x	15%	-19%	0%	x	24%[46.1 µM]	-20%
COc1cc(/C=C(\C#N)C(=O)NC2CCCCC2C)ccc1OS(=O)(=O)c1ccc(C)cc1 (stereo unspecified)	u	-3.7%	25µM*	6%	6%	-15%	-4%	4%
Cc1ccc(NC2CCCN(C(=O)CCn3nccc3C)C2)cc1C (stereo unspecified)	13%	x	-1%	5%	5%	x	1%	7%
CC(C)CCN1C(Nc2ccccc2)=NC[C@@H]1Cc1ccccc1	x	x	-6%	-22%	-3%	x	x	0%
O=c1[nH]c2ccc(Cl)cc2c(O)c1Cc1ccccc1	2%	x	-8%	3%	-1%	x	-3%[46.1 µM]	28%

The whole of this part, from the first entry:
SMILES	Lassa entry inh	Cruzain inh Det	StopGo reporter	NS1 inh	SARS PLpro yeast	Cruzain noTriton	MARV entry inh	RE007 growth inh
Cc1ccc(C)c(Cn2c3ccccc3c3cnn(CC(=O)NC4CCCCCC4)c(=O)c32)c1	6%[46.1 µM]	-2.2%	-10%	x	x	2%	-3%[46.1 µM]	x
O=C(COC(=O)CCc1nc2ccccc2n1-c1ccccc1)Nc1cccc(Cl)c1	19%	-9.9%	-13%	-11%	-3%	3%	0%	-6%
O=S(=O)(c1ccccc1)N1CCc2ccccc21	1%	x	-16%	x	x	x	-1%	-11%
C(=C/c1nccc2c1[nH]c1ccccc12)/c1ccc2c(c1)OCO2	-28%	x	30%	-32%	-17%	x	u	39%
COCCCNC(=O)C[C@H]1C[C@H](C(=O)N(C(C)C)C(C)C)[C@@]2(C)c3[nH]c4cc(CCC(=O)N(C)C)ccc4c3CCN2C1=O	x	x	-4%	x	-1%	x	1%	7%
CCOC(=O)C1CCN(C(=O)COc2cccc3ccccc23)CC1	17%[46.1 µM]	x	15%	-19%	0%	x	24%[46.1 µM]	-20%
COc1cc(/C=C(\C#N)C(=O)NC2CCCCC2C)ccc1OS(=O)(=O)c1ccc(C)cc1 (stereo unspecified)	u	-3.7%	25µM*	6%	6%	-15%	-4%	4%
Cc1ccc(NC2CCCN(C(=O)CCn3nccc3C)C2)cc1C (stereo unspecified)	13%	x	-1%	5%	5%	x	1%	7%
CC(C)CCN1C(Nc2ccccc2)=NC[C@@H]1Cc1ccccc1	x	x	-6%	-22%	-3%	x	x	0%
O=c1[nH]c2ccc(Cl)cc2c(O)c1Cc1ccccc1	2%	x	-8%	3%	-1%	x	-3%[46.1 µM]	28%
COc1cc(CC(=O)NCc2ccc3c(c2)OCO3)cc(OC)c1OC	8%	1.6%	-5%	-1%	3%	-6%	17%[46.1 µM]	-8%
CCNS(=O)(=O)c1ccc(-c2ccc(-n3cnnn3)cc2)cc1	9%	x	5%	x	1%	x	12%[14.2 µM]	28%
CCOC(=O)c1nnn(-c2nonc2N)c1COc1ccccc1	17%	5.9%	-2%	-10%	-1%	6%	-2%	1%
O=S(=O)(NCC(c1ccc2c(c1)OCO2)N1CCOCC1)c1ccccc1 (stereo unspecified)	-2%	x	0%	x	4%	x	13%	3%
CCC(Oc1ccccc1F)C(=O)NCCN1CCOCC1 (stereo unspecified)	-17%[46.1 µM]	x	5%	5%	-1%	x	-4%[46.1 µM]	-2%
COc1ccccc1C(=O)NNC(=O)c1ccc(Cl)cc1	x	x	32%[activator]	-4%	0%	x	x	-7%
Cc1ccccc1OCc1nnc(SCC(=O)Nc2ccc(N3CCOCC3)cc2)n1C	5%[46.1 µM]	x	7%	11%	5%	x	14%[46.1 µM]	11%
CN1C(=O)CC(Sc2ncccc2C(=O)O)C1=O (stereo unspecified)	2%	0.9%	x	-12%	1%	0%	0%	18%
Clc1ccc(N2CCN(Cc3nnc(-c4ccc5c(c4)OCO5)o3)CC2)cc1	23%[46.1 µM]	0.1%	-22%	x	x	4%	3%[46.1 µM]	x
CC(C)CCN1CCN(Cc2ccoc2)CC1CCO (stereo unspecified)	x	x	48%[activator]	-1%	-2%	x	x	-1%
CCc1cc(C=NC2CCCCC2)c(O)s1	6%	-2.3%	10%	-3%	9%	4%	u	-15%
Cc1ccc(N2C(=O)CSC2c2cccnc2)cc1F (stereo unspecified)	-3%	0.1%	-10%	-7%	10%	14%	1%	4%
O=C(O)c1sccc1Oc1ccc(NS(=O)(=O)c2ccc(Cl)cc2)cc1	x	x	1%	8%	1%	x	x	10%
O=C(C1CCC(CNc2c(N3CCOCC3)c(=O)c2=O)CC1)N1CCN(c2ccccc2)CC1 (stereo unspecified)	4%	-2.4%	-18%	0%	12%	-6%	-11%	-6%
Cc1ccc(OCCNC(=O)/C=C/c2ccccc2)cc1	7%	-5.3%	7%	4%	-16%	-9%	9%	-8%
Cc1ccccc1N=C1NC(=O)C(CO)(CO)S1	x	x	-22%	11%	0%	x	x	-16%
CCOc1ccc(Nc2c(S(=O)(=O)c3ccccc3)cnc3ccc(F)cc23)cc1	x	-2.8%	-10%	x	x	-9%	-2%[46.1 µM]	x
CCOc1cc(-c2nc(-c3ccc(OC)cc3)no2)cc(OCC)c1OCC	14%	-7.2%	-18%	-7%	u	2%	0%	-3%
CN1CCN(C(=S)NC(CC(=O)c2ccccc2)c2ccccc2)CC1 (stereo unspecified)	u	x	57%[activator]	-1%	-2%	x	u	0%
COc1ccccc1OCCn1c(=O)sc2ccccc21	0%	-2.3%	-4%	-25%	-4%	-5%	-17%	-10%
Cc1cc(C)n(C(=O)c2cc([N+](=O)[O-])cc([N+](=O)[O-])c2)n1	x	x	-6%	8%	5%	x	x	8%
CCOC(=O)Cc1csc(SCn2nnc3ccccc3c2=O)n1	-14%	1.1%	-6%	-4%	-7%	-10%	-3%	16%
C=CCN(c1ccc(Cl)cc1)S(=O)(=O)c1cccc(C(=O)O)c1	-14%[46.1 µM]	x	-11%	x	0%	x	-14%[46.1 µM]	10%
O=C(c1cccnc1)N1CCN(C(=O)c2ccco2)CC1	6%	1.0%	x	1%	0%	19%	20%	11%
CCN(C(=O)CN1CCN(c2cccc(Cl)c2)CC1)c1c(N)n(Cc2ccccc2)c(=O)[nH]c1=O	-4%	x	-14%	-12%	-3%	x	u	4%
Cc1[nH]c(C)c(S(=O)(=O)NCCc2ccccc2)c1C(=O)N1CCCC1	-9%[46.1 µM]	x	33%[activator]	5%	-4%	x	-6%[46.1 µM]	-18%
COc1ccc(N2C(=O)CCC(C(=O)O)C2c2ccc(F)cc2)cc1 (stereo unspecified)	5%	2.1%	11%	10%	-5%	-3%	5%[46.1 µM]	-6%
COc1ccc(Nc2nc(-c3ccccc3)nc3ccccc23)cc1S(=O)(=O)N1CCOCC1	x	x	u	u	-4%	x	x	1%
CN(C)/N=C/c1c(O)ccc2ccccc12	5%	3.1%	4%	-63%	0%	-9%	15%	u
CC(=O)N1CCc2cc(S(=O)(=O)NC(CC(C)C)C(=O)N3CCc4ccccc4C3)ccc21 (stereo unspecified)	3%	5.8%	-4%	3%	6%	u	-21%	-22%
O=C(COc1ccc(Cl)cc1Cl)Nc1ccccc1F	7.1µM*	x	-25%	x	x	x	-48%	66%
Cc1ccc(C2C(C(=O)c3ccco3)=C(O)C(=O)N2c2nnc(C)s2)cc1 (stereo unspecified)	11%	-0.5%	7%	11%	-3%	-5%	13%	-5%
CC(=O)c1ccc(NC(=O)C(C)Sc2n[nH]c(-c3cccnc3)n2)cc1 (stereo unspecified)	-3%	x	0%	9%	-1%	x	2%[46.1 µM]	3%
COc1ccccc1OCCn1c(SCC(=O)O)nc2ccccc21	x	x	1%	12%	1%	x	x	-1%
Cc1csc(NC(=O)CSc2nsc(SCC(=O)Nc3nc(C)cs3)c2C#N)n1	-12%	-5.9%	-19%	14%	-1%	u	-3%&-23%	8%
COc1cccc(CC(=O)NCCCSc2ccccc2)c1	29%[46.1 µM]	x	8%	-46%	0%	x	-14%[46.1 µM]	-6%
CC(C)(C)C(=O)COc1ccccc1[N+](=O)[O-]	-28%[46.1 µM]	x	10%	0%	0%	x	u	u
C/C(CC(=O)Nc1cccc(F)c1)=N\NC(=O)c1ccncc1	x	x	-3%	u	18%	x	x	0%
O=c1[nH]c2ccccc2nc1/C=C(\O)c1cccs1	-28%	x	22%	-32%	-3%	x	-25%[46.1 µM]	3%
COc1ccc(N2C(=O)/C(=C/c3ccc(N(C)C)o3)C(=O)NC2=S)cc1	x	x	-15%	5%	2%	x	x	0%
Cc1nc2ccc(NC(=O)c3ccc(=O)[nH]c3)cc2s1	-7%[46.1 µM]	x	-10%	-8%	2%	x	0%[46.1 µM]	6%
CCN1CC2([N+](=O)[O-])CC=C(Cl)C([N+](=O)[O-])(C1)C2 (stereo unspecified)	19%	x	-4%	-1%	1%	x	29%	-5%
